Source: PubChem
PV pol inh: poliovirus RNA polymerase inhibition | poliovirus polymerase elongation, fluorescence polarization; hits give low values | % elongation, % (compound at 16.7 µg/mL) | hit rate 0.66% among 150,000; in the data active = % elongation below about 90%; note: some results filed as inactive read as strong as hits
Target sequence (P03300 1749-2209 limits assumed): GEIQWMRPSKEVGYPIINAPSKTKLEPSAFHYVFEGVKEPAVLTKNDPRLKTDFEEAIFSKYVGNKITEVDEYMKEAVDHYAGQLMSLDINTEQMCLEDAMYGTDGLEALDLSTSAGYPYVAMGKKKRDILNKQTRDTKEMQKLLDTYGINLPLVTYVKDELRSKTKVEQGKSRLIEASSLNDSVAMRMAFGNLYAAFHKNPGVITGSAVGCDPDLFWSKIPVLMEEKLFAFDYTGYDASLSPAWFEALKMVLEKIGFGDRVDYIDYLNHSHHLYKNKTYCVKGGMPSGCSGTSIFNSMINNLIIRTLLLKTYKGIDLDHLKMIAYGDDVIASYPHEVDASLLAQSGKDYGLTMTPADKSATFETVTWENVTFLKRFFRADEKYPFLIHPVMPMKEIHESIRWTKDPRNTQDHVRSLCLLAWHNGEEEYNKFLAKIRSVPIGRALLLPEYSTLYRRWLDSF
Mtb MenB inh: inhibitors of Mycobacterium tuberculosis MenB enzyme; P9WNP5; MenB enzyme assay, absorbance read-out; some hits fall short of the stated cut; inhibition, %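 (about 12 µg/mL by stock and volumes)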; hit rate 0.43% among 100,000;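 active = mean of two replicates above 30%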;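 note: 0% = no compound and 100% = wells with inactive enzyme; the first replicate is given; strong numbers were not always called active; inactives centre near -10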
MbtI inh: inhibitors of Mycobacterium tuberculosis siderophore enzyme MbtI | P9WFX0 | hit rate 0.89% among 100,000 | purified MbtI enzyme, fluorescence intensity read-out | AID 493033 | inhibition, %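 (about 17 µg/mL by stock and volumes)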;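 active = above 50% in both replicates, above 80% if mildly self-fluorescent; inactive = the rest, strongly fluorescent compounds included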;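 note: 0% = mean of negative and 100% = mean of positive controls; one replicate is shown; some compounds called inactive have numbers as strong as hits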
Target sequence (P9WFX0 whole entry, looked up): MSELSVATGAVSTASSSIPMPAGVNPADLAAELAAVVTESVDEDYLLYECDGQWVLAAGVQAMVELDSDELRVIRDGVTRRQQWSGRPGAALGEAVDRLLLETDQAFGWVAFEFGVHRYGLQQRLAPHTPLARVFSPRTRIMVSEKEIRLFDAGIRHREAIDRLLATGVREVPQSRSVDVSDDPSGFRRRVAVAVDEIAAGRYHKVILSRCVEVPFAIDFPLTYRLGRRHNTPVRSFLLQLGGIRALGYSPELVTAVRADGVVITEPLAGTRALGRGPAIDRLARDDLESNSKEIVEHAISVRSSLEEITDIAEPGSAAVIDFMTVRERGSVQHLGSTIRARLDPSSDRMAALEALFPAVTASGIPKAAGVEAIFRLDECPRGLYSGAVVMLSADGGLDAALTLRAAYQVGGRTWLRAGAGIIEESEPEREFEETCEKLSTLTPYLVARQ
PV pol inh intensity: also measured in PV pol inh; calls as there; % elongation; measured here: total intensity read-out; formula for this scale not given here;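 total fluorescence in place of polarization; lower means less elongation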
Active calls of the source: *; i = inactive; nt = not tested or not shown; & = joins results of further samples.

SMILES | PV pol inh | PV pol inh intensity | Mtb MenB inh | MbtI inh
CCOC(=O)/C(=N\Nc1ccccc1Cl)N(C)C1CCS(=O)(=O)C1 (configuration not stated) | 102 | 105 | -23 | -1
CC1(C)C2CC=C(COCC(O)CNC3CC3)C1C2 (configuration not stated) | 96 | 100 | 1 | 4
COc1ccccc1NC(=O)C1=C(C)Nc2ccccc2S1 | 104 | 104 | 0 | nt
CCn1c(Cn2ncc(Cl)c(Cl)c2=O)nc2cc(S(=O)(=O)N(C)C)ccc21 | 107 | 118 | -19 | -2
Cc1sc2ncnc(NCC(C)(C)N3CCOCC3)c2c1C | 103 | 100 | -9 | -8
CCCc1cc2c(cc1NC(=O)C(C)(C)C(=O)Nc1cc3c(cc1CCC)OCO3)OCO2 | 101 | 99 | -17 | nt
O=C(CN1CCOCC1)C12CC3CC(CC(C3)C1)C2 | 101 | 94 | -7 | -3
CCOC(=O)N1CCC(N(CCN(C)C)C(=S)Nc2ccc(OC)c(Cl)c2)CC1 | 102 | 103 | -8 | -10
CCCN(CCC)C(=O)c1cc(-c2ccccc2)n[nH]1 | 101 | 100 | 2 | -14
Cc1nc(Cc2nnc(SCC(=O)c3ccc4c(c3)NC(=O)CO4)o2)cs1 | 103 | 111 | 3 | -4
Cc1cc(C)nc(NC(N)=NC2CCCCC2)n1 | 102 | 102 | 15 | 3
Cn1c(Cc2ccccc2)nnc1SCN1C(=O)c2ccccc2C1=O | 102 | 107 | -8 | 4
CC1C(=O)CCN(C(C)(C)C)C1C (configuration not stated) | 107 | 110 | -8 | nt
Cc1cccc(COc2coc(CN3CCc4ccccc4C3)cc2=O)c1 | 106 | 107 | -19 | 10
CCOC(=O)Cc1nnc(-c2ccc(Cl)cc2)o1 | 101 | 103 | -23 | -5
O=C(NCc1ccco1)/C(=C/c1cn(-c2ccccc2)nc1-c1cccs1)NC(=O)c1ccccc1 | 93 | 106 | -11 | 35
CC(C)(C)c1cn2c3ccccc3nc2n1CCCO | 103 | 99 | 2 | nt
CCC(Sc1nnc(CSc2ncccn2)n1-c1ccc(Cl)cc1)C(=O)OC (configuration not stated) | 102 | 103 | 0 | -4
CSCCC(C(=O)OC1CCOC1=O)N1C(=O)c2ccccc2C1=O (configuration not stated) | 99 | 93 | -7 | 5
CC(C)C(=O)Nc1nncs1 | 101 | 109 | 2 | -4
COC(=O)C1=C(N)OC2=C(C(=O)CCC2)C1c1ccc(OC)cc1 (configuration not stated) | 101 | 101 | 37* | 4
COc1ccc2c(c1OC)C(=O)N(c1ccc(O)cc1)C2 | 103 | 97 | -25 | 17
O=C(c1cc(=O)c2ccccc2o1)N1CCCC1 | 104 | 104 | nt | 4
c1ccc(C2CC2)c(OCC2=NCCN2)c1 | 104&102 | 101&101 | -17 | -17
CCCCc1nnc(NC(=O)C=C(C)C)s1 | 101 | 100 | -16 | -2
SMILES | PV pol inh | PV pol inh intensity | Mtb MenB inh | MbtI inh
O=C(COc1ccccc1)Nc1ccc2c(c1)C(=O)NC2=O | 99 | 107 | 7 | -50
OCn1c2c(c3ccccc31)CCCC2 | 98 | 113 | -12 | 14
N#Cc1ccc(C=Nc2cccc(C(N)=O)c2)cc1 | 100 | 102 | -24 | -17
CCOC(=O)CCn1nc(-c2ccc(Cl)cc2)cc1N | 98 | 102 | 16 | 4
O=C(Cn1ncc2ccccc21)N1CCc2ccccc21 | 104 | 101 | -5 | 7
CC(C)(C)/C=N/NS(=O)(=O)c1ccc(-c2ccccn2)s1 | 104 | 100 | -12 | 56
Cc1ccc(-c2nccnn2)cc1 | 103 | 107 | -27 | -8
COC(=O)c1ccccc1S(=O)(=O)N1CCC(C(=O)Nc2nnc(C)o2)CC1 | 102 | 103 | -13 | -10
O=C(CSc1ncc(-c2ccc(Br)cc2)[nH]1)N(Cc1ccco1)CC(F)(F)F | 104 | 104 | 5 | 8
O=C1N=c2ccccc2=C1c1sc(=S)[nH]c1O | 95 | 101 | -51 | 84*
COC(=O)/C=c1\sc2nc3cc(Cl)c(Cl)cc3n2c1=O | 111 | 104 | -12 | 0
CSc1nnc2n(/N=C/c3c[nH]c4ccccc34)cnn12 | 103 | 104 | -11 | nt
CC(=O)Nc1ccc(OC(=O)c2cccnc2)cc1 | 103 | 102 | -26 | -3
CCn1c(SCc2nc3ccccc3c(=O)[nH]2)nnc1C(C)NC(=O)c1ccccc1 (configuration not stated) | 101 | 102 | 3 | 3
O=C(N/N=C/c1ccco1)c1n[nH]c2c1CCC2 | 103 | 103 | -56 | 25
CCOC(=O)N1CCC(NC(=O)c2oc3c(c2C)-c2[nH]ncc2CC3)CC1 | 104 | 108 | -4 | 51
O=C(CCN1C(=O)COc2ccccc21)NCc1ccc(F)cc1Cl | 102 | 104 | -43 | -10
CCC(Sc1nc2ncccc2c(=O)n1CC1CCCO1)C(=O)Nc1cccc(OC)c1 (configuration not stated) | 101 | 98 | 8 | 3
CCS(=O)(=O)c1ccc(O)c(N=Cc2ccc(C)o2)c1 | 91 | 226 | -16 | 10
CN(C(=O)c1ccccc1)C(=O)N(C)C(=O)c1ccccc1 | 101 | 91 | -27 | -7
CC(N)C(c1ccccc1)N1CCOCC1 (configuration not stated) | 103 | 100 | -52 | 0
N#Cc1ccc(CONC(=O)c2cccs2)cc1 | 103 | 110 | -13 | 2
Cc1ccc(NC(=O)C2C3/C=C\CCCCC32)cc1 (configuration not stated) | 103 | 104 | 0 | nt
Cc1ccc(S(=O)(=O)c2c[nH]c(=S)[nH]c2=O)cc1 | 94 | 103 | -13 | 6
C=CCn1c(SCC(=O)c2cccs2)nc2scc(-c3ccccc3)c2c1=O | 106 | 105 | -21 | 2
SMILES | PV pol inh | PV pol inh intensity | Mtb MenB inh | MbtI inh
Cn1c(O)c(N=NC(=S)Nc2ccccc2)c2ccccc21 | 99 | 99 | -84 | 13
Cc1ccc(S(=O)(=O)c2nc(-c3ccccc3)oc2N2CC(C)OC(C)C2)cc1 (configuration not stated) | 103 | 105 | -4 | -3
NC(=O)C1CCCN(C(=O)CCCSc2nc3ccccc3s2)C1 (configuration not stated) | 103 | 103 | -38 | 56
CN(C)S(=O)(=O)Nc1ccc(Cc2ccncc2)cc1 | 104 | 104 | 14 | -5
Cc1ccc(C(=O)C2CCOC(C)(C)C2)cc1 (configuration not stated) | 106 | 112 | 6 | nt
O=C(COC(=O)c1ccc(-c2nnc(-c3ccccc3)o2)cc1)c1ccc(F)cc1 | 103 | 103 | -15 | -14
N#Cc1ccc(COC(=O)CSC(=S)N2CCOCC2)cc1 | 102 | 98 | -17 | 8
CSc1ccc(/C=c2\s/c(=C(/C#N)C(=O)N3CCN(C)CC3)n(-c3cccc(C)c3)c2=O)cc1 | 99 | 140 | -1 | 4
Cc1[nH]c(=O)c(C#N)c(C)c1CCC(=O)N1C(=NCc2ccccc2)SCC1(C)C | 102 | 91 | -7 | 18
O=C1C(C=Nc2ccccc2O)=C(O)c2ccccc21 | 102 | 105 | -92 | -14
O=C(c1ccc2c(=O)n(CCC3=CCCCC3)c(=S)[nH]c2c1)N1CCCC1 | 102 | 97 | 4 | 0
CN1CCN(Cc2coc3ccccc3c2=O)CC1 | 99 | 99 | -11 | nt
O=C(NCn1ccc(=O)[nH]c1=S)c1ccccc1 | 103 | 103 | -13 | -3
O=C(CSc1nnc(-c2sc3ccccc3c2Cl)o1)NCC(F)(F)F | 104 | 107 | -10 | -23
Oc1ccc(OCc2ccccc2)cc1 | 102&100 | 101&101 | -60&-13 | 8&-11
C1CCC(NCC2OCCCCO2)CC1 | 100 | 104 | 1 | -4
Cc1sc2ncn(CC(=O)N(C)Cc3ccc(Br)s3)c(=O)c2c1C | 104 | 108 | -12 | 16
Cc1cccc(CSc2nc3c(c(=O)[nH]2)C(C(C)C)C2=C(CC(C)(C)CC2=O)N3)c1 (configuration not stated) | 101 | 103 | -14 | 6
O=C(N/N=C/c1ccsc1)C1CC1 | 104 | 101 | 20 | 42
CCc1ccc(CN2CCN(Cc3cccc(OC)c3)CC2)cc1 | 103 | 105 | -11 | -10
CCn1nc(C(=O)Nc2nccs2)c2ccccc2c1=O | 98 | 101 | -3 | 9
CCOc1ccc(NC(=O)CCc2ccc(OC)cc2)cc1 | 103 | 103 | -15 | nt
CCOc1ccc(NCCC(=O)c2ccc(NS(C)(=O)=O)cc2)cc1 | 100 | 98 | 3 | -3
COCCn1nnnc1C(c1cc2c(C)ccc(C)c2[nH]c1=O)N1CCCc2ccccc21 (configuration not stated) | 107 | 128 | 29 | 2
Cc1nn(-c2ccccc2)c2sc(C(=O)NC(C)C)cc12 | 104 | 102 | nt | -2
SMILES | PV pol inh | PV pol inh intensity | Mtb MenB inh | MbtI inh
CC1(C)Cc2cccc(OCCNS(=O)(=O)c3ccc(-n4cnnn4)cc3)c2O1 | 105 | 101 | -27 | -14
CC(C)NC(=S)N=Nc1c(O)n(C)c2ccccc12 | 98 | 97 | -46 | 12
COc1ccc(Nc2cc(C(=O)N3CCc4ccccc4C3)c3ccccc3n2)c(OC)c1 | 100 | 105 | -26 | 24
O=C(CSC1=NCCS1)NCc1ccco1 | 104 | 102 | -4 | -9
CCc1cccc(C)c1NC(=S)NCCC(=O)O | 102 | 93 | -7 | -2
Fc1ccc(CN2CCCCCC2)cc1F | 98 | 103 | 14 | 3
CC(=O)Nc1ccc(C2N=C(c3cnccn3)NN2)cc1 (configuration not stated) | 100 | 98 | -26 | -1
S=c1oc(-c2ccccc2)nn1CN1CCCCC1 | 100 | 104 | 3 | -28
CC(C)CC1(C)NC(=O)N(CC(=O)c2ccc(N(C)S(C)(=O)=O)cc2)C1=O (configuration not stated) | 113 | 128 | -11 | 6
Cc1ccc(/C=N/NC(=O)C(c2ccccc2)c2ccccc2)o1 | 105 | 105 | -3 | 11
CCn1c(=O)c2c(=O)cc(N)[nH]c2n(Cc2ccccc2)c1=O | 101 | 110 | -3 | -10
CCN(CC)c1nc(NN)nc(Nc2ccc(C)c(Cl)c2)n1 | 102 | 99 | -11 | -10
O=C(NCCc1ccccc1)N1c2ccccc2Sc2ccccc21 | 100 | 103 | -47 | 1
CC[n+]1c(/C=C/N(C)c2ccccc2)sc2ccc(OC)cc21 | 101 | 92 | i | 15
CC1C(O)=C(c2ccc(F)cc2)C(=N)N1c1ccccc1 (configuration not stated) | 111 | 116 | -6 | 4
Nc1cccc(OCc2ccc(F)cc2)c1 | 105 | 100 | -38 | -7
Cc1ccc(-c2cc(C(F)F)nc(NCC3CCCO3)n2)cc1 (configuration not stated) | 100 | 102 | -3 | -8
COc1ccc2nc(-c3ccc(N)cc3)[nH]c2c1 | 103 | 103 | 22 | 86
Cc1ccc2c(CC(=O)N(C)Cc3nc4ccccc4c(=O)[nH]3)coc2c1 | 103 | 97 | 7 | 9
CCOC(=O)C(CC)SC1=NS(=O)(=O)c2cc(Cl)ccc2N1 (configuration not stated) | 106 | 106 | -9 | 28
O=S(c1ccc2ccccc2c1)N(Cc1ccc(F)cc1)Cc1ccco1 (configuration not stated) | 102 | 103 | -42 | 7
CCOC(=O)c1cnc2c(Cl)c(Cl)ccc2c1NCCOC(=O)C(C)C | 103 | 99 | -8 | 62
COC(=O)c1[nH]c(C(=O)OC)c(O)c1O | 93 | 97 | -7 | -5
CC1CCC2(CC1)NC(=O)N(Nc1ccc(S(=O)(=O)N3CCCC3)cn1)C2=O (configuration not stated) | 103 | 106 | -29 | 0
CCCC(=O)N1c2ccccc2NC2=C(C(=O)CCC2)C1c1ccc(O)c(OC)c1 (configuration not stated) | 102 | 102 | -11 | 1

Complete entries from above.
Record of `Nc1cccc(OCc2ccc(F)cc2)c1` = PV pol inh: 105; PV pol inh intensity: 100; Mtb MenB inh: -38; MbtI inh: -7
Record of `CC[n+]1c(/C=C/N(C)c2ccccc2)sc2ccc(OC)cc21` = PV pol inh: 101; PV pol inh intensity: 92; Mtb MenB inh: i; MbtI inh: 15

In a second layout: results already given
| Structure | PV pol inh | PV pol inh intensity | Mtb MenB inh | MbtI inh |
| --- | --- | --- | --- | --- |
| COc1ccc(Nc2cc(C(=O)N3CCc4ccccc4C3)c3ccccc3n2)c(OC)c1 | 100 | 105 | -26 | 24 |
| O=C(CSC1=NCCS1)NCc1ccco1 | 104 | 102 | -4 | -9 |
| CCc1cccc(C)c1NC(=S)NCCC(=O)O | 102 | 93 | -7 | -2 |
| Fc1ccc(CN2CCCCCC2)cc1F | 98 | 103 | 14 | 3 |
| CC(=O)Nc1ccc(C2N=C(c3cnccn3)NN2)cc1 (configuration not stated) | 100 | 98 | -26 | -1 |

(continued)
SMILES | PV pol inh | PV pol inh intensity | Mtb MenB inh | MbtI inh
CN(c1ccccc1)S(=O)(=O)c1ccc(I)cc1 | 98 | 101 | 6 | -10
CNC(=O)COC(=O)c1cccnc1Cl | 104 | 107 | nt | -10
CCCCN(C(=S)NC1CCCCC1)c1c(N)n(CCC)c(=O)[nH]c1=O | 100 | 106 | -9 | -13
Cc1ccc(NC(=O)CC(O)(C(F)(F)F)C(F)(F)F)cc1 | 104 | 100 | 6 | -80
Cc1cccc2nc(Cn3ccccc3=O)cn12 | 103 | 111 | 1 | nt
c1ccc(-c2cnc(CSc3ncnc4sccc34)o2)cc1 | 104 | 116 | -11 | 9
Cc1ccc2c(cnn2C(=O)CCCC(=O)NC2CCCc3ccccc32)c1 (configuration not stated) | 107 | 105 | -57 | 4
COc1ccccc1N(C(=O)c1ccccc1O)C(C)C1CC1 (configuration not stated) | 102 | 105 | -14 | 7
COc1ccccc1C1CCN(C(=O)Nc2ccccc2C#N)CC1 | 102 | 95 | -3 | -1
